# AID504770 – growth inhibitors of E. coli YBA685 in a screen for V. cholerae RctB (chromosome II replication) inhibitors. E. coli YBA685 rctB-dependent plasmid, OD600 growth, 3 h; active compounds read low. 130,000 compounds, 0.27% hits. AID 504770. z-score (concentration not given with the values);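 active = z-score under -2 on both plates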;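 note: wells of about 30 µL received 100 nL stock; score is relative to mean and SD of the test wells; the first replicate is given; strong numbers were not always called active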
# CapD inh – CapD enzyme inhibition. purified CapD enzyme, fluorescence intensity read-out; active compounds read low; some hits fall short of the stated cut. z-score (test concentration not listed). 140,000 compounds, 0.23% hits;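 active = z-score under -4 in either of two replicates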;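 note: stock transfer was 100 nL into about 40 µL; score is relative to mean and spread of the plate; one replicate is shown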
# * marks the source's active call; other numbers are inactive results; x = not tested or not shown; & = joins results of further samples. The list is partial (hit frequency here may not be typical).
SMILES,AID504770,CapD inh
CCN(CC)C(=O)N1c2ccccc2CCc2ccccc21,x,-0.165
CCc1nn(CC(=O)NCCc2ccc(OC)cc2OC)c(=O)c2cc3sc(C)cc3n12,-0.9,0.265
O=C(O)C1CCCN1c1ncnc2ccccc12 (stereo not drawn),-0.45,-3.04
Cn1cc(Cl)c(C=C(C#N)C#N)n1,-0.55,-1.09
Cc1cc(-c2ccccc2)oc2cc3ccccc3c1-2,0.6,-1.36
COc1ccccc1OCCOc1ccc(Cl)cc1-c1nc2sc3c(c2c(=O)[nH]1)CCCC3,x,0.525
Cc1ccc(C2CC2/C(=N/OC(=O)c2ccco2)c2ccc(F)cc2)cc1 (stereo not drawn),x,-0.05
Cc1ccc(C)c(N=Cc2c(O)n(-c3ccccc3)c(=S)n(-c3ccccc3)c2=O)c1,x,0.355
CCN(CC)c1nc2ccccc2n1Cc1ccc(Cl)cc1,-0.15,x
CCc1nnc(NC(=O)c2c(OC)cccc2OC)s1,0.1,1.23
Nc1ccc(S(=O)(=O)c2ccccc2)c(Cl)c1,-0.35,0.9
CCOC(=O)c1cccc2c1-c1ccccc1/C2=N/O,-0.1,-0.14
O=C1CCC(N2C(=O)c3ccccc3C2=O)C(=O)N1 (stereo not drawn),-0.2,1.41&0.07
O=C(CSc1nnc(C2CC2)n1C1CC1)c1cc(Cl)sc1Cl,-0.5,x
COCC(C)n1c(=S)nnc2c3ccccc3[nH]c21 (stereo not drawn),-1.15,x
CCCn1c2ccccc2c2nnc(SCC(=O)NC3CCCC3)nc21,2.1,-1.29
NCc1nc2ccccc2c(=O)[nH]1,1.8,0.57
COc1ccccc1CN=C1NC(=O)C(CC(=O)Nc2ccc(OC)c(OC)c2)S1 (stereo not drawn),0.5,x
CCOC(=O)c1c(NC(=O)C(C)Sc2nnc(CNC(=O)c3ccco3)n2C2CCCCC2)sc2c1CCC2 (stereo not drawn),x,-0.24
CCC(C)Cn1c(Cc2ccc(OC)cc2)nc2ccccc21 (stereo not drawn),-1.3,-0.665
CC1(C)OC(=O)C(=C2CCCCCN2)C(=O)O1,1.8,x
Fc1ccccc1Nc1nc2nonc2nc1N1CCCCCC1,x,-1.08
CC1(C)SCC(C(=O)O)N1C=O (stereo not drawn),x,-0.505
Cc1[nH]c(=O)[nH]c(=O)c1Cc1cccc2ccccc12,-0.55,x
O=C(CN1C(=O)CN=C(c2ccccc2)c2cc(Br)ccc21)N/N=C/c1ccccc1,x,-0.2
COc1cc2c(cc1OC)C(CC#N)N(S(=O)(=O)c1cccc3nonc13)CC2 (stereo not drawn),x,-0.96
O=C(OC(C(=O)c1ccccc1)c1ccccc1)c1cccc(O)c1 (stereo not drawn),-0.35,-0.98
Cc1ccccc1CSc1sc(C(=O)c2ccccc2)c(N)c1C#N,x,-0.035
CCN1CCCC1CNC(C)C(=O)NC1CCCC1 (stereo not drawn),0.3,x
COc1cc(OC)nc(CSc2nc(C)cc(C)n2)n1,x,-0.345
CSc1cccc(NC(N)=O)c1,-0.9,-0.62
COc1cc(NC(=O)c2cc3nc(-c4ccc([N+](=O)[O-])cc4)cc(C(F)(F)F)n3n2)cc(OC)c1OC,x,0.31
CC(C)(C)OC(=O)CN1C(=O)S/C(=C/c2cccs2)C1=O,0.15,x
NC(=O)C1CCN(c2nc3c(S(=O)(=O)c4ccc(Br)cc4)nnn3c3ccccc23)CC1,0.7,10.2
COC(=O)C1=C(C)NC(C)=C(C(=O)OC)C1c1cn(-c2ccccc2)nc1-c1ccc(S(=O)(=O)N(C)C)cc1,x,-0.67
Fc1cccc(Cl)c1CSc1nnc(-c2c[nH]c3ccccc23)o1,1.45,x
Cc1cc(C)n2c(Nc3c(C)cccc3C)c(-c3ccc(C)o3)nc2n1,-0.4,-0.915
CC1=CC(=O)N(c2ccc(C3CCCCC3)cc2)C1=O,2.2,0.02
CCCS(=O)(=O)c1c(S(=O)(=O)CCC)c2cc(-c3ccncc3)ccn2c1C(=O)N/N=C/c1cccc([N+](=O)[O-])c1,x,-0.48
CCOC(=O)N1CCN(C(=O)c2ccc3c(=O)n(-c4ccccc4)c(SCc4cccc([N+](=O)[O-])c4)nc3c2)CC1,x,0.255
CN1CCN(Cc2c(O)ccc3c4c(c(=O)oc23)CCC4)CC1,x,44.1
COC(=O)c1cc(OC)c(OC)cc1NC(=O)c1ccc(C)cc1,-0.35,3.74
CCc1nnc(NC(=O)C(CC(C)C)N2C(=O)c3ccccc3C2=O)s1 (stereo not drawn),-0.8,-0.52
Cc1ccc(CN2C(=O)COc3cc(NC(=O)c4ccncc4)ccc32)cc1,-0.65,x
COc1ccc(C2C(C#N)=C(SC)NC3=C2C(=O)CC(C)(C)C3)cc1 (stereo not drawn),-0.25,2.15
Clc1cccc(Cl)c1CO/N=C/c1c(Cl)nc2sccn12,x,-0.68
CCOC(=O)c1c(NC(=O)c2cc3cc(Br)ccc3oc2=O)sc(C(C)=O)c1C,x,0.35
O=C(NCCc1ccccc1)c1ccccc1CN1C(=O)c2ccccc2C1=O,0.5,0.195

# Compound profiles (already shown). Order of screens: AID504770	CapD inh
# Entry for CCCS(=O)(=O)c1c(S(=O)(=O)CCC)c2cc(-c3ccncc3)ccn2c1C(=O)N/N=C/c1cccc([N+](=O)[O-])c1 = x	-0.48
# Entry for O=C(NCCc1ccccc1)c1ccccc1CN1C(=O)c2ccccc2C1=O = 0.5	0.195
# Entry for COc1ccc(C2C(C#N)=C(SC)NC3=C2C(=O)CC(C)(C)C3)cc1 (stereo not drawn) = -0.25	2.15

# Next entries
SMILES,AID504770,CapD inh
Cc1cc(C(=O)COc2ccc(-n3ccnc3)cc2)c(C)n1-c1ccc2c(c1)OCO2,-0.1,x
CN1C(=O)N(C)C(O)(c2ccccc2)C1(O)c1ccccc1 (stereo not drawn),x,-0.33
COc1ccc(-c2noc(N3CCC(C(=O)N(C)c4ccccc4)CC3)n2)cc1,0.25,-2.02
COc1ccc(CNCCC2(c3ccc(F)cc3)CCOC(C)(C)C2)cc1OC (stereo not drawn),x,0.055
C/C(=N\OC(=O)Nc1ccc(Cl)cc1)c1ccc(-n2ccnc2)cc1,x,0.135
CSc1cccc(N2CC(C(=O)N3CCCCC3C(N)=O)CC2=O)c1 (stereo not drawn),-0.4,x
c1ccc2c(c1)ccc1nnc(-c3c[nH]c4ccccc34)n12,x,-0.28
NS(=O)(=O)c1ccc(CNC(=S)NC2CCCC2)cc1,-0.45,-0.03
CCN(C(=O)c1cnc(N2CCN(c3ncccn3)CC2)c2ccccc12)c1cccc(Cl)c1,x,0.42
CCCCn1nc(C(=O)Nc2nc(SC)ns2)ccc1=O,0.35,x
CC(C)NC(=O)c1ccc(COCC(F)(F)F)cc1,-0.7,0.11
C/C(=N\NC(=O)c1sc2ccccc2c1Cl)c1ccco1,-0.5,-0.535

# The final 4 records of the section above come first, to join the parts:
SMILES,AID504770,CapD inh
CCN(C(=O)c1cnc(N2CCN(c3ncccn3)CC2)c2ccccc12)c1cccc(Cl)c1,x,0.42
CCCCn1nc(C(=O)Nc2nc(SC)ns2)ccc1=O,0.35,x
CC(C)NC(=O)c1ccc(COCC(F)(F)F)cc1,-0.7,0.11
C/C(=N\NC(=O)c1sc2ccccc2c1Cl)c1ccco1,-0.5,-0.535
CCCCc1nnc(NC(=O)c2c(OC)cccc2OC)s1,0.15,-0.365
CCSc1nnc2c(n1)OC1(CCCC1)Nc1ccccc1-2,-2.55,0.26
CC(=O)N1CC(C)=C(C#N)C1O (stereo not drawn),0.75,-2.15
O=C(CSC1=NC(=O)C(Cc2ccccc2)C(=O)N1)Nc1ncc(Br)cc1Br (stereo not drawn),x,-0.02
COc1cc(NC(=O)c2sc3nc(N)c(C#N)c(-c4ccc(OC)c(OC)c4)c3c2N)c(OC)cc1Cl,x,-0.22
Cc1cc2cc(C(=O)O)ccc2o1,1.75,x
Cc1c(C(=O)NNc2ncnc3sc4c(c23)CCCC4)oc2ccccc12,-4.25*,x
COc1ccccc1CNC(=O)OCCc1ccccc1Cl,x,0.11
COC(=O)/C(C#N)=C(\C)N,-0.45,x
COc1ccc(C2(c3ccc(OC)cc3)C=Cc3c(c(OC)cc4ccccc34)O2)cc1,x,-0.37
O=C(CC1SC(=O)N(CN2CCCCC2)C1=O)Nc1ccccc1 (stereo not drawn),x,-0.08
CCOc1ccc(-c2c(C#N)c(N)nc(SCC(=O)OC)c2C#N)cc1,x,0.925
CCOc1ccc(N2C(=O)/C(=C\c3cccc([N+](=O)[O-])c3)S(=O)(=O)C2c2cccc([N+](=O)[O-])c2)cc1 (stereo not drawn),x,-0.46
CS(=O)(=O)N1CCN(C(=O)Cc2ccc(-c3ccccc3)cc2)CC1,-0.6,1.1
CCOc1cccc(=O)c2c(C)n(Cc3ccccc3)c(C)c12,-0.3,-0.61
N#Cc1ccccc1N1CCOCC1,0,51.9
O=[N+]([O-])c1ccccc1C1=Nc2ccccc2C(c2ccccc2)(c2ccccc2)O1,x,0.04
NC1=NC(=O)C(CC(=O)Nc2cccc(C(F)(F)F)c2)S1 (stereo not drawn),-0.8,-0.24
C=CCC(Nc1ccccc1C)c1ccc(Cl)cc1 (stereo not drawn),-0.8,0.025
Cc1cc(C(=O)COC(=O)c2ccc(S(=O)(=O)N3CCCCC3)cc2)c(C)n1CC1CCCO1 (stereo not drawn),0.3,x
COc1ccccc1C1=NOC(C(=O)NCCCn2ccnc2)C1 (stereo not drawn),-0.25,0.955
CC1CC(C)CN(C(=O)C(C)Sc2nnc(N)s2)C1 (stereo not drawn),-0.35,x
CCn1c(Cc2ccccc2)nnc1SCC(=O)N(C)C1CCCCC1,-0.05,x
O=C(Nc1ccc(C(F)(F)F)cc1)C1CCc2ccccc2O1 (stereo not drawn),0.65,-0.29

# Gathered by group, those above containing an NH in an aromatic ring.
SMILES,AID504770,CapD inh
COc1ccccc1OCCOc1ccc(Cl)cc1-c1nc2sc3c(c2c(=O)[nH]1)CCCC3,x,0.525
COCC(C)n1c(=S)nnc2c3ccccc3[nH]c21 (stereo not drawn),-1.15,x
NCc1nc2ccccc2c(=O)[nH]1,1.8,0.57
Cc1[nH]c(=O)[nH]c(=O)c1Cc1cccc2ccccc12,-0.55,x
Fc1cccc(Cl)c1CSc1nnc(-c2c[nH]c3ccccc23)o1,1.45,x
c1ccc2c(c1)ccc1nnc(-c3c[nH]c4ccccc34)n12,x,-0.28

# (listing goes on)
SMILES,AID504770,CapD inh
COc1ccc(/C=C2\Sc3ccccc3NC2=O)cc1,1.35,-0.57
Cc1cc2nc(N)nc(N)n2n1,0.2,0.635
CS(=O)(=O)c1ccc(-n2cc(-c3ccccc3NC(=O)C(c3ccccc3)c3ccccc3)cn2)cc1,x,3.83
COCCN=Cc1c(NCCOC)nc2ccccn2c1=O,2.05,x
COc1ccc(NC(=O)C2=CC(c3cccc(OC)c3)=NS(=O)(=O)N2C)cc1,0.85,-2.2
CCN(CC)S(=O)(=O)c1ccc(C(=O)Nc2ccccc2Cl)cc1,0.9,0.47
C=CCNC(=O)C(C)N1c2cccc3cccc(c23)S1(=O)=O (stereo not drawn),-0.9,-1.09
COc1cc(C2C3=C(CC(C)(C)CC3=O)OC3=C2C(=O)CC(C)(C)C3)c(Br)cc1OCC(=O)O,x,-0.455
Cc1cc(/C=N/NC(=S)NC(C)C)c(C)n1CC(C)C,-0.2,x
CC1CCCCN1C(=O)CCS(=O)(=O)c1ccc2c(c1)NC(=O)CO2 (stereo not drawn),-0.25,-0.26
CCOC(=O)c1c(NC(=O)CSc2nnc(-c3cccnc3)n2N)sc(C(=O)N(C)C)c1C,-0.4,x
O=C1C(Nc2cccc(Br)c2)=CC(c2cccc3ccccc23)N1c1cccc(Br)c1 (stereo not drawn),x,-0.32
Cc1nc2ccccc2n1CCNC(=O)NC1CCCCC1,1,x
COc1ccc(NC(=O)CC2SC(=Nc3ccccc3)N(CCO)C2=O)cc1 (stereo not drawn),0.05,x
COc1cc(/C=N/S(=O)(=O)CCc2ccccc2)cc(OC)c1O,-1.35,x
CCN(CC)S(=O)(=O)c1ccc(C(=O)Nc2c3c(nn2-c2cccc(C)c2C)CSC3)cc1,x,2.54
Cc1nn(C(=O)CCC(=O)N2CC(C)CC(C)C2)c2ccccc12 (stereo not drawn),-1.05,0.155
O=C(O)c1ccc(N2C(=O)/C(=C/c3ccc(-c4cc(Cl)ccc4Cl)o3)C=C2c2ccccc2)cc1,x,-0.35
COc1ccc(NC(=O)CC(=O)Nc2ccc(Cl)c(Cl)c2)cc1,x,-0.445
CCOC(=O)c1c(NC(=O)CCN2C(=O)c3ccccc3C2=O)sc(C(C)=O)c1C,x,-1.06
Cc1ccc(NC(=O)C(C)Nc2ccccc2C)cc1 (stereo not drawn),2.3,-0.08
COc1cccc(CN(Cc2ccco2)S(=O)(=O)c2cccc(F)c2)c1,x,-0.16
NNCCc1ccccc1,0.1,0.525&1.34
COc1ccc(C2=NN(C(=O)COc3ncnc4ccccc34)C(c3ccco3)C2)cc1 (stereo not drawn),-0.9,x
COC(=O)CSC1=C(C#N)C(c2ccccc2C)C(C#N)C(=O)N1 (stereo not drawn),-0.3,1.13
O=C1C=CC(=O)N1CCNc1ncc(C(F)(F)F)cc1Cl,1.9,-0.115
CC(=O)NCc1ccc(C(=O)CSc2nc3ccccc3n2-c2ccccc2)s1,-0.35,x
CC(C)N(CC(=O)Nc1ccc2c(c1)OCCO2)c1ccccc1,1.15,x
COC(=O)Cc1c(C(=O)OC)sc(N)c1C(=O)OC,-0.15,x
COc1cc(C(=O)Oc2ccc(-c3nnco3)cc2)ccc1OC(F)F,0.05,x
O=C(Nc1ccc(N2C(=O)c3cccnc3C2=O)cc1)c1ccco1,-0.55,-0.25
CN(C)c1nc2nonc2nc1Nc1ccc(F)cc1,-0.65,-5.19*
CCOC(=O)NN1C(=O)c2ccccc2NC1c1ccccc1 (stereo not drawn),0.85,72
Cc1ccc(NC(=O)CN(C)C(=S)NC2CC2)cc1,-0.75,x

# Assay outcomes from PubChem BioAssay.
